Source: PubChem (Broad Institute)
YB-1 expr inh: YB-1 expression inhibition; U2OS, qRT-PCR YB-1 vs CDIP delta delta Cp, 16 h; active compounds read high; zero = DMSO, each unit about twofold; delta delta Cp (YB-1 minus CDIP) (no concentration beside the values); actives 0.37% (n = 30,000); AID 434959;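 active means delta delta Cp rounded down to an integer at or above 3, about 3 SD of DMSO wells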;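 further: higher means less YB-1 transcript or more CDIP transcript relative to DMSO; stock transfer was 100 nL into about 100 µL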
MITF inh: MITF inhibition; inhibition, % (test concentration not listed); AID 2240; actives 0.28% (n = 37,000); TRPM1 promoter luciferase, luminescence, 24 h;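 active means most replicates at 85% or more, or half of them and the mean; inconclusive means half reach 85% but not the mean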;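 further: human melanocyte line stably carrying TRPM1 promoter luciferase reporter; 0% = vehicle wells and 100% = a positive control; the first replicate is given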
PD-1 reverse act: reversal of PD-1 mediated T-cell inhibition | 29,000 tested, under 10 active | AID 2316 | primary human CD4 T cells, PD-L1 beads, CellTiter-Glo 96 h | activation, % (concentration not given with the values);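 active means replicate mean of 50% or more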;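 further: 0% = median vehicle wells and 100% = positive control; 100 nL library stock added to about 50 µL; numbers are from one replicate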
Shh pathway inh: Sonic Hedgehog pathway inhibition; Shh-LIGHT2 Gli-luciferase reporter, 30 h; inhibition, % (no concentration beside the values); actives 2.1% (n = 22,000); AID 2313;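 active means replicate mean of 65% or more; inconclusive means mean lower but half the replicates past it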;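 further: pathway switched on by Shh-conditioned medium diluted 1 in 25 in low serum; 100 nL library stock added to about 40 µL; 0% = median of neutral wells and 100% = positive control level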
* = called active by the depositor; ? = inconclusive; / = not tested or not shown. Only part of the results is shown; the hit share may differ from the screen's.

SMILES | YB-1 expr inh | MITF inh | PD-1 reverse act | Shh pathway inh
C[C@@H]1CN([C@@H](C)CO)C(=O)c2cccc(NS(C)(=O)=O)c2O[C@@H]1CN(C)CC1CC1 | -0.34 | -10 | 1.1 | ?
C[C@H](CO)N1C[C@H](C)[C@H](CN(C)Cc2ccc(Cl)c(Cl)c2)Oc2c(NC(=O)NC3CCCCC3)cccc2C1=O | -0.046 | 21 | -1.5 | 42
O=C(COc1cc(O)c2c(=O)c3ccccc3oc2c1)c1ccc(Br)cc1 | / | 7 | 1.7 | /
COc1ccc(S(=O)(=O)N(C)C[C@@H]2Oc3ccc(NS(=O)(=O)c4ccc(F)cc4)cc3CC(=O)N([C@H](C)CO)C[C@H]2C)cc1 | -0.038 | -3 | -0.3 | 4
C[C@@H]1CN([C@@H](C)CO)C(=O)c2cc(NC(=O)C3CCCCC3)ccc2O[C@H]1CN(C)S(=O)(=O)c1ccc(Cl)cc1 | 0.12 | -7 | -0.1 | /
COc1ccc(NC(=O)N(C)C[C@@H]2Oc3c(NC(=O)c4cc(C)nn4C)cccc3C(=O)N([C@@H](C)CO)C[C@H]2C)cc1 | 0.24 | -3 | -0.7 | -13
COc1ccc(S(=O)(=O)NCc2ccccn2)c(C)c1C | / | -14 | 0.6 | /
Cc1cc2nnc(SCC(=O)Nc3sc4c(c3C#N)CCC4)n2c2ccccc12 | / | -21 | 2.1 | /
C[C@@H]1CN([C@H](C)CO)C(=O)c2cc(NS(=O)(=O)c3cccs3)ccc2O[C@@H]1CN(C)C(=O)Nc1ccccc1 | 0.079 | 5 | -1.7 | /
Cc1noc(C)c1NC(=O)N(C)C[C@@H]1OCCCC[C@@H](C)Oc2ccc(N(C)C)cc2C(=O)N([C@H](C)CO)C[C@@H]1C | -0.024 | -7 | / | -18
CCOC(=O)C1=C[C@@H](OC(CC)CC)[C@H](NC(C)=O)[C@@H](N)C1 | 0.041 | -5 | / | 18
C[C@@H]1CN([C@H](C)CO)C(=O)c2cc(NC(=O)Nc3ccccc3)ccc2O[C@H]1CN(C)S(=O)(=O)c1ccc(F)cc1 | -0.16 | -2 | 0.2 | -8
Cc1ccc([N+](=O)[O-])cc1NC(=O)c1ccc(NC(=O)C2(c3ccccc3)CCOCC2)cc1 | / | 12 | 1.6 | /
C[C@@H]1CCCCO[C@H](CN(C)Cc2ccc(C(F)(F)F)cc2)[C@@H](C)CN([C@H](C)CO)C(=O)c2cc(NS(=O)(=O)c3cn(C)cn3)ccc2O1 | -0.46 | -3 | 0.4 | /
C[C@H](CO)N1C[C@H](C)[C@@H](CN(C)Cc2ccccc2)Oc2c(NS(C)(=O)=O)cccc2C1=O | 0.36 | -1 | -2.4 | -39
C[C@H]1CN([C@@H](C)CO)C(=O)Cc2cc(NC(=O)Nc3ccc(F)cc3)ccc2O[C@@H]1CN(C)S(C)(=O)=O | 0.33 | -17 | / | -1
COc1cccc(C2=NN(C(=O)c3onc(-c4ccccc4Cl)c3C)C(c3ccco3)C2)c1 (configuration not stated) | / | 37 | -6.8 | /
Cc1noc(C)c1S(=O)(=O)Nc1ccc2c(c1)C(=O)N([C@H](C)CO)C[C@@H](C)[C@H](CN(C)C(=O)Nc1ccc(F)cc1)O2 | -0.19 | -7 | 1.1 | /
C[C@H]1CN([C@@H](C)CO)C(=O)c2cc(NC(=O)C3CCCCC3)ccc2O[C@@H]1CN(C)S(C)(=O)=O | -0.027 | -8 | / | /
C[C@@H]1CN([C@@H](C)CO)C(=O)Cc2cc(NC(=O)Cn3cnnn3)ccc2O[C@@H]1CN(C)C(=O)Nc1ccccc1 | 0.0049 | -6 | -0.3 | -29
C[C@@H]1CN([C@H](C)CO)C(=O)Cc2cc(NC(=O)CCC(F)(F)F)ccc2O[C@@H]1CN(C)Cc1ccc(C(=O)O)cc1 | 0.19 | -10 | 1.2 | -70
COc1ccc(S(=O)(=O)Nc2cccc3c2O[C@H](CN(C)Cc2ccc(Cl)c(Cl)c2)[C@H](C)CN([C@H](C)CO)C3=O)cc1 | -0.1 | 25 | -1.6 | 34
Nc1ccc(C(=O)Oc2ccccc2)c(O)c1 | 0.053 | -69 | / | -142
CC(=O)Nc1ccc(-c2nnc(SCC(=O)Nc3ccc(Cl)cc3Cl)n2C)cc1 | / | 8 | -0.6 | /
C[C@H](CO)N1C[C@H](C)[C@H](CN(C)C(=O)NC2CCCCC2)Oc2ccc(NS(C)(=O)=O)cc2CC1=O | 0.25 | -1 | -0.2 | ?

New compounds follow:
SMILES | YB-1 expr inh | MITF inh | PD-1 reverse act | Shh pathway inh
CCC(=O)c1ccc2cc(OC)ccc2c1 | -0.054 | -10 | 0.0 | -133
Cc1cc(C(=O)Nc2cccc3c2O[C@H](CN(C)Cc2ccc(C(=O)O)cc2)[C@H](C)CN([C@@H](C)CO)C3=O)n(C)n1 | 1.1 | -5 | -0.1 | -12
C[C@@H]1CN([C@H](C)CO)C(=O)c2cc(NC(=O)Cc3cn(C)c4ccccc34)ccc2O[C@@H]1CN(C)S(C)(=O)=O | 0.022 | 0 | 0.5 | -16
CC(=O)N[N+]1=C(N)c2ccccc2C1 | 0.4 | -1 | -0.6 | -38
COc1cc2c(=O)c(-c3ccc(O)cc3)coc2cc1O[C@@H]1O[C@@H](C)[C@H](O)[C@@H](O)[C@H]1O | -0.31 | -17 | 0.4 | -22
Cn1c(CN2CCOCC2)nnc1SCC(=O)Nc1ccc2ccccc2c1 | / | -5 | -0.1 | /
Cc1noc(C)c1NC(=O)Nc1ccc2c(c1)C(=O)N([C@@H](C)CO)C[C@@H](C)[C@@H](CN(C)Cc1ccc(Oc3ccccc3)cc1)O2 | -0.045 | 2 | -0.5 | 32
C[C@@H]1CN([C@@H](C)CO)C(=O)Cc2cc(NC(=O)C3CC3)ccc2O[C@@H]1CN(C)Cc1ccc(Cl)c(Cl)c1 | 0.27 | 7 | -0.4 | 14
CC(C)NC(=O)N(C)C[C@H]1Oc2ccc(NC(=O)CCCCCC(=O)Nc3ccccc3N)cc2C(=O)N([C@@H](C)CO)C[C@@H]1C | 0.046 | -17 | 1.5 | /
C[C@H](CO)N1C[C@H](C)[C@@H](CN(C)S(=O)(=O)c2ccc(Cl)cc2)Oc2c(NC(=O)C3CC3)cccc2C1=O | 0.42 | -12 | -3.1 | -101
C[C@@H]1CN([C@@H](C)CO)C(=O)c2cccc(NC(=O)Nc3ccc(F)cc3)c2O[C@@H]1CN(C)S(=O)(=O)c1cccs1 | 0.23 | 11 | 1.3 | 13
Nc1ncnc(Sc2nc3ccccc3s2)c1[N+](=O)[O-] | / | 28 | -12 | /
COc1ccc(NC(=O)Nc2ccc3c(c2)C(=O)N([C@@H](C)CO)C[C@H](C)[C@@H](CN(C)S(=O)(=O)c2ccc(F)cc2)O3)cc1 | 0.067 | -7 | 0.7 | -23
C[C@H]1CN([C@@H](C)CO)C(=O)c2cc(NS(=O)(=O)c3ccccc3)ccc2O[C@@H]1CN(C)C(=O)Nc1ccc(F)cc1 | 0.19 | -6 | 0.7 | /
CC(C)c1cc(CN2CCN(c3ccccc3)CC2)c(O)c(CN2CCN(c3ccccc3)CC2)c1 | 0.17 | -20 | -0.9 | /
C[C@@H]1CN([C@H](C)CO)C(=O)Cc2cc(NC(=O)Cc3cn(C)c4ccccc34)ccc2O[C@H]1CN(C)S(=O)(=O)c1cccs1 | 0.27 | 6 | / | -24
Cc1noc(C)c1NC(=O)Nc1cccc2c1O[C@H](CN(C)C(=O)Nc1ccccc1)[C@H](C)CN([C@H](C)CO)C2=O | -0.33 | -5 | -0.2 | -39
COc1ccc(S(=O)(=O)N(C)C[C@H]2Oc3ccc(N(C)C)cc3C(=O)N([C@H](C)CO)C[C@@H]2C)cc1 | -0.22 | 2 | 1.0 | -7
Cc1cccc(C2=NC(C(F)(F)F)(C(F)(F)F)c3c(n(C)c(=O)n(C)c3=O)N2)c1 | -0.11 | -11 | -0.8 | -17
C[C@@H]1CN([C@H](C)CO)C(=O)c2cc(NC(=O)NC3CCCCC3)ccc2O[C@@H]1CN(C)Cc1ccc(C(=O)O)cc1 | -0.038 | -6 | / | -53
C[C@H](CO)N1C[C@H](C)[C@@H](CN(C)S(=O)(=O)c2cccs2)Oc2ccc(NC(=O)C3CC3)cc2C1=O | 0.056 | 2 | -0.1 | -11
Nc1nnc(SCC(=O)Nc2cc(Cl)cc(Cl)c2)s1 | / | -21 | 0.5 | /
C[C@@H]1CN([C@H](C)CO)C(=O)c2cc(NC(=O)NC3CCCCC3)ccc2O[C@@H]1CN(C)C(=O)Nc1ccc(C(F)(F)F)cc1 | 0.24 | 4 | 0.1 | -21
C[C@H]1CN([C@@H](C)CO)C(=O)c2cccc(NC(=O)C3CCOCC3)c2O[C@H]1CN(C)Cc1ccc2c(c1)OCO2 | -0.17 | -2 | 0.7 | 39
C[C@@H]1CN([C@H](C)CO)C(=O)c2cccc(NS(=O)(=O)c3ccccc3)c2O[C@@H]1CN(C)C(=O)Nc1cccc2ccccc12 | -0.31 | 5 | -1.1 | 2

The listing continues.
SMILES | YB-1 expr inh | MITF inh | PD-1 reverse act | Shh pathway inh
Cc1noc(C)c1S(=O)(=O)N(C)C[C@H]1Oc2ccc(NC(=O)CCCN(C)C)cc2C(=O)N([C@H](C)CO)C[C@@H]1C | 0.36 | -8 | 1.1 | /
Cc1ccc(S(=O)(=O)Nc2cccc3c2O[C@H](CN(C)C(=O)Nc2cccc4ccccc24)[C@@H](C)CN([C@H](C)CO)C3=O)cc1 | 0.12 | 13 | 0.0 | -9
C[C@H](CO)N1C[C@H](C)[C@@H](CN(C)S(=O)(=O)c2ccc(F)cc2)Oc2ccc(NC(=O)C3CCCCC3)cc2C1=O | 0.21 | -3 | -0.8 | /
C[C@@H]1CN([C@H](C)CO)C(=O)c2cccc(NC(=O)c3nc4ccccc4s3)c2O[C@@H]1CN(C)Cc1ccc(Cl)c(Cl)c1 | 0.29 | 4 | -1.7 | -11
C[C@@H]1CN([C@H](C)CO)C(=O)c2cc(N(C)C)ccc2O[C@H]1CN(C)Cc1ccccc1 | -0.21 | 0 | / | -16
Cc1ccc(S(=O)(=O)Nc2cccc3c2O[C@@H](CN(C)S(=O)(=O)c2ccc(F)cc2)[C@H](C)CN([C@@H](C)CO)C3=O)cc1 | -0.17 | -1 | -0.2 | -13
C[C@H]1CN([C@@H](C)CO)C(=O)c2cccc(N(C)C)c2O[C@@H]1CN(C)S(=O)(=O)c1ccc(F)cc1 | -0.5 | 5 | 1.6 | -82
C[C@H]1CN([C@@H](C)CO)C(=O)c2cccc(NC(=O)Nc3ccc4c(c3)OCO4)c2O[C@@H]1CN(C)C(=O)Nc1ccc2c(c1)OCO2 | -0.33 | -22 | -0.6 | -11
C[C@@H]1CCCCO[C@H](CN(C)C(=O)c2ccncc2)[C@@H](C)CN([C@H](C)CO)C(=O)c2cc(NS(=O)(=O)c3cn(C)cn3)ccc2O1 | 0.29 | -20 | / | -14
C[C@@H]1CN([C@H](C)CO)C(=O)c2cccc(NS(=O)(=O)c3ccc(Cl)cc3)c2O[C@H]1CN(C)CC1CC1 | -0.48 | -1 | / | 27
C[C@H]1CN([C@@H](C)CO)C(=O)c2cc(NC(=O)Nc3ccc4c(c3)OCO4)ccc2O[C@@H]1CN(C)Cc1ccncc1 | 0.24 | -7 | 0.5 | -4
C[C@H](CO)N1C[C@H](C)[C@H](CN(C)C)Oc2ccc(NC(=O)Cc3ccccc3)cc2C1=O | -0.31 | -3 | -0.8 | -14
C[C@H](CO)N1C[C@H](C)[C@H](CN(C)CC2CCCCC2)Oc2c(NS(C)(=O)=O)cccc2C1=O | 0.31 | -1 | / | 38
CC(C)(C)NC(=O)N1CCN(c2ccc(C#N)cn2)CC1 | -0.53 | -18 | 4.3 | -19
C[C@@H]1CN([C@@H](C)CO)C(=O)c2cccc(NC(=O)Nc3ccc4c(c3)OCO4)c2O[C@H]1CN(C)C(=O)Nc1cccc2ccccc12 | 0.074 | 23 | -2.5 | -36
COc1ccc(NC(=O)N(C)C[C@@H]2OCCCC[C@@H](C)Oc3ccc(NC(=O)CCCCCC(=O)Nc4ccccc4N)cc3C(=O)N([C@H](C)CO)C[C@@H]2C)cc1 | -0.043 | -8 | 0.2 | /

Fetched by compound from the list above (two):
SMILES | YB-1 expr inh | MITF inh | PD-1 reverse act | Shh pathway inh
C[C@@H]1CN([C@H](C)CO)C(=O)c2cc(N(C)C)ccc2O[C@H]1CN(C)Cc1ccccc1 | -0.21 | 0 | / | -16
C[C@@H]1CCCCO[C@H](CN(C)C(=O)c2ccncc2)[C@@H](C)CN([C@H](C)CO)C(=O)c2cc(NS(=O)(=O)c3cn(C)cn3)ccc2O1 | 0.29 | -20 | / | -14

Some of the entries above in a different format.
| SMILES | YB-1 expr inh | MITF inh | PD-1 reverse act | Shh pathway inh |
| --- | --- | --- | --- | --- |
| C[C@H](CO)N1C[C@H](C)[C@H](CN(C)C)Oc2ccc(NC(=O)Cc3ccccc3)cc2C1=O | -0.31 | -3 | -0.8 | -14 |
| C[C@H](CO)N1C[C@H](C)[C@H](CN(C)CC2CCCCC2)Oc2c(NS(C)(=O)=O)cccc2C1=O | 0.31 | -1 | / | 38 |
| CC(C)(C)NC(=O)N1CCN(c2ccc(C#N)cn2)CC1 | -0.53 | -18 | 4.3 | -19 |
| C[C@@H]1CN([C@@H](C)CO)C(=O)c2cccc(NC(=O)Nc3ccc4c(c3)OCO4)c2O[C@H]1CN(C)C(=O)Nc1cccc2ccccc12 | 0.074 | 23 | -2.5 | -36 |
